KSHV LANA nucl: inhibitors of KSHV LANA-nucleosome binding, primary screen, biochemical, fluorescence polarization, FITC-LANA1-23, chicken nucleosomes; z-score (test concentration not listed); 51,000 compounds, 0.3% hits; FITC-LANA1-23 / chicken nucleosome fluorescence polarization; stronger effect = lower value;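 active = both repeat wells score below -2 in polarization z-score versus plate sample wells, excluding overly bright wells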;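 note: 100 nL library stock added to about 30 µL; numbers are from one replicate; some results filed as inactive read as strong as hits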
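Assay system: purified chicken nucleosomes with FITC-labelled LANA N-terminal peptide (1-23) / Probe or stimulus: 50 nM FITC-LANA1-23 probe / Compound dosing: pin-transferred compound, 100 nL / Times: compound with peptide–nucleosome mix 10–45 min at room temperature / Technique: fluorescence polarization, 480 nm excitation, 535 nm parallel and perpendicular emission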
Ab BasE inh: BasE siderophore enzyme inhibitors, primary screen, biochemical, Acinetobacter baumannii ATCC 17978, fluorescence polarization; 84,000 compounds, 0.1% hits; AID 485350, 2010; purified BasE, fluorescence polarization binding displacement; inhibition, % (no concentration beside the values);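 active = both replicates above 25% with normal brightness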;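 note: 0% = negative plate control signal and 100% = positive plate control signal; stock transfer was 100 nL into about 30 µL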
The depositor's hits bear a star; / = not tested or not shown; & = joins results of further samples.

SMILES | KSHV LANA nucl | Ab BasE inh
COC(=O)CSc1nc(N2CCOCC2)nc(N2CCOCC2)n1 | 2.4 | -1.9
Cc1nn(-c2cc(N3CCOCC3)ccc2N)c(=O)c2ccccc12 | 0.061 | 2.0
CC1CN(c2ccc(NC(=S)N3CCSCC3)cc2)CC(C)O1 (configuration not stated) | 0.032 | 0.8
CCC(CC)C(=O)Nc1c[nH]c(=O)[nH]c1=O | -0.94 | 1.6
CC(=O)Nc1ccc(Oc2ncnc3sccc23)cc1 | / | 1.5
CC1C(=O)Nc2ccc(-c3csc(N)n3)cc21 (configuration not stated) | / | 2.1
O=C1CCc2cc(S(=O)(=O)NCc3ccccc3)cc3c2N1CCC3 | -0.83 | -1.0
CCCN(CCC)S(=O)(=O)c1ccc(C(=O)NC2=C(C(=O)OC)SCC2)cc1 | -0.22 | 0.4
Cc1ccc(C(=O)c2sc3[nH]c(=O)c(C(=O)O)cc3c2N)cc1 | -0.37 | 1.2
COc1ccc(C(=O)COC(=O)c2cccc(-n3cnnn3)c2)c(OC)c1 | / | -2.6
CCn1c(SCC(=O)N2CCc3ccccc32)nc2cc(S(=O)(=O)N3CCCCC3)ccc21 | / | -0.8
CCN1C(=O)CS/C1=C(/C#N)C(N)=O | / | 1.8
COC(=C(C#N)C#N)c1c(-c2ccccc2Cl)noc1C | / | 3.2
CSC(SC)=C(C#N)S(C)(=O)=O | 0.89 | 12
CNCC(=O)N1CCN(C)CC1 | / | 1.8
Cc1cc(C)n(N)c(=O)c1C(=O)O | 1.7 | -3.0
Nc1sc2c(c1C(=O)NC1CCS(=O)(=O)C1)CCCC2 (configuration not stated) | -0.13 | -1.5
CCOC(=O)c1cccc(N2Cc3ccncc3C2=O)c1 | -0.033 | -1.6
CC(C)NC(=O)CCn1c(=O)c2cccn2c2cccnc21 | -0.39 | 0.9
O=C(NCCc1ccccc1)Nc1cnc2ccccn2c1=O | -1.4 | 0.7
CN(CC(=O)Nc1ccc(Cl)cc1)S(=O)(=O)CCN1C(=O)NC2(CCCC2)C1=O | / | -1.2
C[C@@H](O[C@H]1OCCN(Cc2n[nH]c(=O)[nH]2)[C@H]1c1ccc(F)cc1)c1cc(C(F)(F)F)cc(C(F)(F)F)c1 | -0.57 | /
COc1ccc(-n2nc(C(=O)NCCCN3CCCC3=O)c3c4ccccc4n(C)c3c2=O)cc1Cl | -0.023 | -1.6
COc1cc2c(cc1OC)CN(C(=O)c1ccc(Cl)c(S(=O)(=O)NCc3ccco3)c1)CC2 | / | -2.6
COc1ccc(NCc2ccc3c(c2)OCO3)cc1 | -0.09 | 2.2
Cn1c(SC/C([O-])=c2/sc3n(c2=O)c2ccccc2[n+]3C)nc2ccccc21 | / | 0.8
COc1nc(C)c(Br)c(C)c1C#N | -0.88 | /
O=C(O)C1CCCCC1C(=O)NC1CCCCC1 (configuration not stated) | 1.9 | -4.5
CC(=O)N1c2ccc(S(=O)(=O)N3CCCC3C(=O)Nc3cccc(C)n3)cc2CC1C (configuration not stated) | -0.86 | -0.8
Cn1cc(C(=O)N/N=C/c2ccc3ncccc3c2)ccc1=O | / | 0.9
O=C(C1CCCCC1)N1CCc2ccccc21 | 0.31 | -1.4
CCCCCCCn1c(=N)n(CC(=O)c2ccco2)c2ccccc21 | 0.66 | -8.5
Cc1cc(C(=O)COC(=O)C2CC2C)c(C)n1-c1cccc(S(=O)(=O)N2CCOCC2)c1 (configuration not stated) | / | 0.5
CC1(C)CC(=O)c2cc(C#N)c(SCSc3nc4c(cc3C#N)C(=O)CC(C)(C)C4)nc2C1 | / | 1.5
Cn1ccc(-c2cccc(NC(=O)Nc3ccccc3)c2)n1 | / | 0.8
CCn1nnnc1SCC(=O)N1c2ccccc2CCc2ccccc21 | -0.38 | 0.3
O=C(OCN1C(=O)c2ccccc2C1=O)C1CCCN1S(=O)(=O)c1ccc(Cl)cc1 (configuration not stated) | / | 0.8
COCCn1c(SCC(=O)NN2C(=O)NC(C)(c3ccccc3)C2=O)nc2ccccc21 (configuration not stated) | / | 1.1
O=C(COC(=O)/C=C/c1ccco1)Nc1nc(-c2ccccc2)cs1 | / | -4.8
Cc1nc(C)c2c(c1C(F)(F)F)-c1ccccc1C2(F)F | / | 0.8

Pulled by compound from above (5):
SMILES | KSHV LANA nucl | Ab BasE inh
COc1nc(C)c(Br)c(C)c1C#N | -0.88 | /
COc1ccc(NCc2ccc3c(c2)OCO3)cc1 | -0.09 | 2.2
Cn1cc(C(=O)N/N=C/c2ccc3ncccc3c2)ccc1=O | / | 0.9
CC(=O)N1c2ccc(S(=O)(=O)N3CCCC3C(=O)Nc3cccc(C)n3)cc2CC1C (configuration not stated) | -0.86 | -0.8
Cn1ccc(-c2cccc(NC(=O)Nc3ccccc3)c2)n1 | / | 0.8

The list goes on.
SMILES | KSHV LANA nucl | Ab BasE inh
S=c1nc(-c2ccccc2)n(-c2ccc(Br)cc2)c2c1CCCC2 | / | 1.9
Cc1cc(=O)n2c(n1)NC(=NCc1ccccc1)NC2c1cccnc1 (configuration not stated) | -0.74 | 1.9
COc1ccc(OCC(=O)N2CCN(S(=O)(=O)c3ccc(OC)cc3)CC2)cc1 | / | 1.8
O=C(Nc1cccc(C(F)(F)F)c1)C1CCN(S(=O)(=O)c2ccccc2)CC1 | -0.15 | 2.5
CS(=O)(=O)N(CC(=O)O)c1ccc(Cl)cc1 | 1.3 | -4.2
Cc1cc(C)cc(-n2ccn3c(CCCC(=O)O)nnc3c2=O)c1 | 2.1 | -0.4
CC(C(=O)NCCCc1ccccc1)N1C(=O)C2CC=CCC2C1=O (configuration not stated) | / | 0.3
CCC(c1nnc(SCc2nnc(-c3ccccc3)o2)n1Cc1ccccc1)N(C)C (configuration not stated) | / | -1.9
O=C(Nc1ccc2[nH]ncc2c1)c1ccccc1 | / | -1.6
Cn1c(CCN(Cc2ccco2)S(=O)(=O)c2ccc(Cl)cc2)n[nH]c1=S | / | -0.5
CCOc1ccc(CN(C)Cc2nc(N)nc(Nc3ccc(C)cc3)n2)cc1 | / | 3.4
O=S(=O)(Cc1ccc(Cl)cc1)N1C=CC(C(F)(F)F)=NCC1 | -0.38 | /
Cc1c(C(=O)N(C)Cc2ccccc2)sc2nc(-c3ccccc3)cn12 | 1.6 | -2.7
CCn1c(=O)cc(N2CCOCC2)[nH]c1=O | 0.14 | 0.2
N#CCn1nnc(-c2ccc3c(c2)OCO3)n1 | 1.8 | -5.3
Cc1cc(C)n(CC(O)CNCc2ccco2)n1 (configuration not stated) | 1.2 | 0.3
Cc1ccc2c(COC(=O)Cc3n[nH]c(=O)c4ccccc34)cc(=O)oc2c1 | / | 0.7
O=C(CSc1nnnn1-c1ccc(O)cc1)c1ccc2c(c1)OCCO2 | / | 1.2
CCOC(=O)c1cc(-c2ccccc2)n(CCC(=O)N2CCn3c2nc2ccccc23)c1C | -1.4 | 1.0
Cn1nc(C(C)(C)C)cc1C(=O)NNc1c(Cl)cncc1Cl | 0.24 | -0.6
CC(Sc1nc2ccccc2o1)C(=O)O (configuration not stated) | 0.46 | 3.0
N#CC(C#N)=CNc1ccc(Oc2cccnc2)nc1 | 0.0005 | 3.4
Cc1ccc(Cn2ccsc2=NC(=O)COC(=O)C2=COCCO2)cc1 | / | -1.2
Cc1ccc2[nH]c3c(=O)n(N)c(C)nc3c2c1 | -1.3 | 1.0
O=C1C2C(C(=O)N1/N=C/c1cccc(I)c1)C1C=CC2C12CC2 (configuration not stated) | / | 3.9
COC(CNC(=O)c1cccc(NS(=O)(=O)c2ccc(Cl)cc2)c1)OC | 0.43 | -1.4
CC1Cc2ccccc2N1C(=O)CSc1nncn1-c1ccccc1 (configuration not stated) | / | 1.9
O=C(NC1(C(=O)NC2CCCCC2)CCCCC1)c1ccccn1 | 0.21 | 0.5
Cc1nc2sc3c(c2c2nncn12)CCCC3 | 0.96 | 0.5
Cc1cccc2nc3c(nc12)C(=O)c1ccccc1C3=O | -0.83 | 2.1
Cc1cc(C)c(C(=O)COC(=O)CCn2c(C)csc2=O)cc1C | / | -0.5
CCn1cnc2c(=O)oc3ccc(S(=O)(=O)N4CCN(c5cc(Cl)ccc5C)CC4)cc3c21 | -0.081 | 3.0
C=CCN1C2=NCCCN2c2ccccc21 | -1.2 | 0.4
O=C1OC(c2ccccc2)=N/C1=C1\OC(=O)c2ccccc21 | -0.025 | 2.0
O=S(=O)(c1ccc(SCc2ccccc2C(F)(F)F)nc1)N1CCCCC1 | / | 3.8
COc1ccc(N=Cc2c(C)c(C#N)c3[nH]c4ccccc4n3c2=O)c(OC)c1 | / | -0.5
S=c1nc(-c2cccs2)cn[nH]1 | / | -4.6
O=C1CSc2nnc(-c3ccccc3)n21 | / | -0.6
Cc1[nH]nc2c1C(Cc1ccccc1)C(C#N)=C(N)O2 (configuration not stated) | / | 1.0
CCN(CC)c1nc2c(S(=O)(=O)c3ccc(C(C)C)cc3)nnn2c2ccsc12 | -2.3 | -10
O=C(Nc1ccc(F)cc1F)N1CCC2(CC1)C(=O)NCN2c1ccccc1 | -0.18 | -2.1
O=C(NC1CCCC1)C(NS(=O)(=O)c1cccc2nsnc12)c1ccccc1 (configuration not stated) | -1.1 | 1.0
O=C(NCc1ccncc1)c1c(O)c2ccccc2[nH]c1=O | 0.53 | -0.2
Cc1c(C)n(C(=O)CSC(=S)N2CCC(C)CC2)c2ccccc12 | / | 0.2
Cc1cc(Cl)c(S(N)(=O)=O)cc1OCC(N)=O | -0.2 | 1.7
CCCn1c(C)cc(CNCCSCc2cccs2)c1C | / | -1.9
Cc1cc(S(=O)(=O)NC(C)C)ccc1OCC(=O)NCc1ccc2c(c1)OCO2 | -0.3 | -0.7
O=C(O)/C=C/c1ccc(/C=N/n2ncc3ccccc32)cc1 | / | 4.2
CCOC(=O)NN=C(C1CC1)C1CC1 | / | 2.2
CC(C)(C)NC(=O)NC(=O)Cn1c(NCCO)nc2ccccc21 | / | 3.2
CSC1=N/C(=C\c2ccccc2C)C(=O)S1 | / | 5.6
CCOc1ccc(Cl)cc1S(=O)(=O)NC | 0.65 | 1.1
COC(=O)COc1cccc2c1ccc1c3c(c(=O)oc12)CCCC3 | / | -2.8
CC(C)n1c(=S)[nH]c2c1c(=O)[nH]c(=O)n2C | -0.98 | -0.6&-0.4
CCCc1nc2c3ccccc3ncn2n1 | / | 1.0
Cc1cccn2c(=O)c3cc(C(=O)NC(C)c4ccccc4)c(=N)n(CCCN4CCOCC4)c3nc12 (configuration not stated) | 0.59 | 3.2
CC1Cc2ccccc2N1C(=O)CNc1cc(C(F)(F)F)ccc1N1CCOCC1 (configuration not stated) | / | 1.1
Oc1ccc2ccccc2c1C=NC1CC1 | / | 0.2
CCOC(=O)c1cc(-c2ccnn2C(=O)c2ccccc2)on1 | / | -3.9
Cc1ccc(Cn2c(SCC#N)nc3ccccc3c2=O)cc1 | / | 3.1

(list continues)
SMILES | KSHV LANA nucl | Ab BasE inh
C=CCn1c(NC(=O)CC)nc2ccccc21 | -0.43 | -0.1
CCc1nc2c(cnn2-c2ccccc2)c(=O)[nH]1 | / | 1.0
CN(CC1COc2ccccc2O1)S(=O)(=O)c1ccc(-c2cc(C(F)(F)F)no2)s1 (configuration not stated) | / | 2.8
CC(C)(C)c1ccc(S(=O)(=O)N2CCN(Cc3cc4c(cc3O)OCO4)CC2)cc1 | / | 1.1
C[n+]1c(-c2ccccc2)csc1NC1CCCCC1 | / | -2.1
C=CCn1cnc2c(sc3nc(C)cc(C)c32)c1=O | 0.76 | /
O=c1[nH]c(=S)[nH]nc1-c1ccc(O)cc1 | -0.2 | 10
O=C(N/N=C/c1ccccc1Cl)C1CC1 | -0.52 | 2.3
COc1ccc(-c2cc3nccc(C4CCN(C(=O)OC(C)(C)C)CC4)n3n2)cc1 | -1.6 | 0.3
Cc1ccc(S(=O)(=O)N(C)CC(=O)N2CCCc3ccccc32)cc1 | 0.82 | 0.6
CC(C)OC(=O)COc1cc2oc(=O)c3c(c2cc1Cl)CCC3 | / | 0.1
COc1cccc(-c2noc(CSc3nc4sc5c(c4c(=O)n3C(C)C)CCC5)n2)c1 | / | -1.1
CCOc1ccc(Nc2nc(N3CCCCC3)nc(N3CCCCC3)n2)cc1 | / | 2.3
OC1(c2ccccc2F)CCNCC1 | -0.46 | 1.2
CCc1cc2c(=O)n(-c3ccccc3)c(SCC(=O)c3ccccc3)nc2s1 | / | -1.3
O=C(NCc1cccs1)C12CC3CC(CC(C3)C1)C2 | 0.13 | -0.3
CCCc1c(C(=O)NC2Cc3ccccc3C2)cnn1-c1ccccc1 | / | 1.8
Cc1cccc(S(=O)(=O)N2CCN(S(=O)(=O)c3ccc(C)c(C)c3)CC2)c1 | / | -0.2
COc1ccc2c(C=Nc3ccccc3F)c(O)n(C)c(=O)c2c1 | / | -0.9
CC1CCCN(c2ncccc2C(=O)NCC2CCCO2)C1 (configuration not stated) | 0.14 | -1.1

Structures above with a COOH group (seven):
SMILES | KSHV LANA nucl | Ab BasE inh
Cc1ccc(C(=O)c2sc3[nH]c(=O)c(C(=O)O)cc3c2N)cc1 | -0.37 | 1.2
Cc1cc(C)n(N)c(=O)c1C(=O)O | 1.7 | -3.0
O=C(O)C1CCCCC1C(=O)NC1CCCCC1 (configuration not stated) | 1.9 | -4.5
CS(=O)(=O)N(CC(=O)O)c1ccc(Cl)cc1 | 1.3 | -4.2
Cc1cc(C)cc(-n2ccn3c(CCCC(=O)O)nnc3c2=O)c1 | 2.1 | -0.4
CC(Sc1nc2ccccc2o1)C(=O)O (configuration not stated) | 0.46 | 3.0
O=C(O)/C=C/c1ccc(/C=N/n2ncc3ccccc32)cc1 | / | 4.2

Bioassay records from PubChem.

A portion of the library; count on the stated rates, not on these rows.
